# Six1-Eya2 blk = blocks human Six1 binding to Eya2; AlphaScreen GST-Six1/His-Eya2 binding, biochemical; stronger effect = lower value; control for the full effect not named in the record; actives 0.56% (n = 360,000); Q15475+O00167; activity change, % (test concentration not listed); in the data active = activity change below about -65%; inconclusive = about -30% to -65%; inactive = above about -30%; also: % is scaled to controls: 0 for no effect and ±100 for the full control effect; compound concentration not given in the record
#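 GST-Six1 + His-Eya2 (5X stock: 250/500 nM); Tris pH 8.0, 300 mM NaCl, 0.05% BSA, 0.02% Tween 20; GSH donor/Ni acceptor beads; 1 h 37 °C dark; AlphaScreen readout.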
# gsp antag = gsp mutant antagonism; gsp-mutant cells, cAMP HTRF, 30 min; control for the full effect not named in the record; actives 0.4% (n = 340,000); Potency, µM (top dose mostly 76.9 µM), for the others: top-dose activity change, negative = inhibition, usual class: inhibitors; active = falling curve of any shape with a large fitted effect; inconclusive = falling curve, mostly with a smaller effect; inactive = flat or rising curve; cell line not stated here;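 also: intracellular cAMP measured with PDE inhibitor Ro 20-1724 present during compound exposure; potency is read from the fitted curve at half-maximal effect; % is scaled to controls: 0 for no effect and ±100 for the full control effect; nearly all actives have a fitted effect of over 65% in size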
#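 Cells, 2000/well, grown 16–24 h in DMEM 10% FBS with 0.5 mg/ml G418, then compounds plus […] (300 uM addition stock), 30 min at 37C. cAMP read by HTRF (cAMP-d2 and anti-cAMP antibody-K in lysis buffer) after 30 min RT.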
# D2 agonist = activates the human D2 dopamine receptor; P14416; DiscoveRx PathHunter D2 beta-arrestin, luminescence, 90 min; 100% = 57 uM dopamine signal; activation, % (concentration not given with the values); actives 0.084% (n = 360,000); AID 624465; in the data active = activation above about 40%; inconclusive = about 15% to 40%; inactive = below about 15%; also: compound concentration not given in the record; the text of the record calls up to 30% inactive
# Target sequence (P14416 whole entry, looked up): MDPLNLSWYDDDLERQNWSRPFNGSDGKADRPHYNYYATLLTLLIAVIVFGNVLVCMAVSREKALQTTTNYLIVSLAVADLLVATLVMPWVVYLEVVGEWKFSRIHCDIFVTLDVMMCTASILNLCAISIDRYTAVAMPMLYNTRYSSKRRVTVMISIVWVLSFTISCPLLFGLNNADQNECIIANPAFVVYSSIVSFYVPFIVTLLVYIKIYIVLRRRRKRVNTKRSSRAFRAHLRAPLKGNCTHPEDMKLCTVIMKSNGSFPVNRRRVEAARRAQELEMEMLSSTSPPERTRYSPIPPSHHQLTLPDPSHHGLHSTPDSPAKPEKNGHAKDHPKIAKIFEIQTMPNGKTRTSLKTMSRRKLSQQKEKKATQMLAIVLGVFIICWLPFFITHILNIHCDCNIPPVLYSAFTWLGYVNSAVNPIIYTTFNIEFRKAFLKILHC
#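 Agonist mode: compounds alone added to overnight-plated D2 PathHunter cells for 90 min at 37 C, with 57 uM final dopamine (EC100) defining full response. Beta-arrestin recruitment detected by chemiluminescent reagent, read after 1 h at ambient temperature.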
# CtBP-E1A inh = CtBP/E1A binding inhibition. AlphaScreen GST-E1A/His-CtBP binding, 1536-well; stronger effect = lower value; control for the full effect not named in the record. activity change, % (no concentration beside the values). actives 0.49% (n = 340,000); in the data active means activity change below about -65%; inconclusive means about -30% to -65%; inactive means above about -30%; also: % is scaled to controls: 0 for no effect and ±100 for the full control effect; compound concentration not given in the record
#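 In 5 uL wells, 23 nL compound meets equimolar GST-E1A and His-CtBP (5X stock 125 nM each) for 2 h, 37 °C. Beads (5X, 50 ug/mL) then 1 h, 37 °C, dark.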
# gsp agonist = activates gsp, the McCune-Albright syndrome mutation | gsp mutant cells, cAMP HTRF, 30 min; control for the full effect not named in the record | Potency, µM (highest dose often 76.9 µM), for the others: at the top dose activation (cAMP increase), hits mostly activators | actives 0.13% (n = 340,000) | AID 624287; active = well fitted activation curve with a large enough effect; inconclusive = small, poorly fitted or top-dose-only effect, or another doubt; inactive = no such curve, though single readings can be large or run the other way; cell line not stated here;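 also: phosphodiesterase inhibitor Ro 20-1724 added with compounds to block cAMP breakdown; potency is read from the fitted curve at half-maximal effect; nearly all actives have a fitted effect of over 60% in size; about a fifth of the inactives were tested at one dose only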
#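 Cells in DMEM/10% FBS with G418 were pretreated with compounds in DMSO plus […] (300 uM stock) for 30 min at 37C. cAMP was measured by HTRF (cAMP-d2 plus anti-cAMP antibody-K) after 30 min at room temperature.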
# D2 potentiator = potentiates the human D2 dopamine receptor allosterically; DiscoveRx D2 beta-arrestin cells, luminescence, 90 min; 100% = 57 uM dopamine signal; potentiation, % (no concentration beside the values); actives 0.23% (n = 360,000); P14416; active = potentiation of 50% or more; inconclusive = 30% to 50%; inactive = 30% or less;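 also: compound concentration not given in the record; tested on top of an EC20 dose of dopamine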
#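 D2 cells co-treated with compound plus 50 nM dopamine (EC20) for 90 min at 37 deg C to detect potentiation. Beta-arrestin recruitment was read as enzyme-fragment luminescence after 1 h at ambient temperature. Full response was set by 57 uM dopamine.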
# Numbers without * were called inactive; ? = inconclusive; . = no result given; [ ] = another dose, or the depositor's remark.
SMILES,Six1-Eya2 blk,gsp antag,D2 agonist,CtBP-E1A inh,gsp agonist,D2 potentiator
Cc1cc(C(=O)N2CC(C)CC(C)C2)c(C)o1 (stereo not drawn),3.8,5.4%,-0.2,2.0,-6.0%,0.3
COc1cc2c(cc1N/C=C(\C#N)c1nc(-c3ccc(F)cc3)cs1)oc1ccccc12,3.9,12.5%,0.4,-0.7,4.0%,6.7
Cc1ccc(C)c(OCC(O)CN2CCN(CCN3C(=O)c4cccc5cccc(c45)C3=O)CC2)c1 (stereo not drawn),?,-12.3%,-2.3,-26.4,-42.4%[inhibitor],-34.9
COc1ccccc1-c1cc(C(=O)Nc2c(F)cc(F)cc2Br)no1,-1.4,-7.1%,-2.6,-1.2,5.4%,-8.3
COc1ccccc1C(=O)NCCC(=O)Nc1ncccc1O,-11.2,-5.2%,-4.5,13.4,17.6%,-3.8
O=C(CNC(=O)c1cccc(F)c1)N/N=C/C=C/c1ccccc1,-3.2,-4.5%,-0.8,.,-31.1%[inhibitor],-11.2
CN(CC(=O)Nc1cccc(S(=O)(=O)N2CCOCC2)c1)CC(=O)Nc1ccc(Cl)c(C(F)(F)F)c1,-8.7,?,3.1,-3.0,-38.1%[inhibitor],12.3
Cc1cccc(CC2CC(=O)N(c3ccccc3)C2=O)c1 (stereo not drawn),3.2,2.6%,0.6,14.9,-1.4%,-0.4
COc1ccccc1-c1nnc(SC(C)C(=O)NCC2CCCO2)n1C (stereo not drawn),9.5,2.9%,-4.7,0.8,-3.2%[15.4 µM],-3.7
CC(C)N1CCC(N2CCN(CC#Cc3ccccc3)CC2CCO)CC1 (stereo not drawn),3.8,.,1.8,0.9,13.3%[15.4 µM],-9.0
COc1ccc(-c2c(NC(=O)c3ccco3)n(-c3ccccc3)nc(C)c2=O)cc1,0.5,1.5%,1.6,-5.3,-1.1%[15.4 µM],-19.6
O=C(CN1CCN(c2ccccc2O)CC1)Nc1ccnn1C1CCCC1,-0.9,-11.0%,2.8,-24.1,-1.9%,-1.2
c1ccc(-c2noc(-c3cccs3)n2)nc1,-13.5,1.0%,2.1,-1.0,-7.1%,0.2
CC(C)CCOc1ccc(/C=N/N2C(=O)CSC2=S)cc1,-20.4,5.4%,-1.2,?,-39.4%[inhibitor],-4.4
Cc1ccc(C(=O)NC(=S)Nc2ccc(S(=O)(=O)N(C)c3ccccc3)cc2)cc1,0.2,-9.4%,-2.4,11.3,-32.6%[inhibitor],0.8
O=C(CCn1nc(-c2ccccc2)ccc1=O)N1CCN(c2ccccn2)CC1,-5.6,5.2%,-2.5,1.2,8.4%,-1.0
COC(=O)CCN(c1ccccc1)S(=O)(=O)c1cc(-c2cc(C)no2)ccc1OC,0.5,-10.0%,-2.2,-19.8,-22.6%,-2.4
CCS(=O)(=O)N1CCC(C(=O)NCc2ccc(F)cc2Cl)CC1,0.3,6.7%,1.8,7.3,?,-27.8
CCCn1ncc2c(Nc3ccc(C)c(C)c3)ncnc21,-1.2,-1.6%,-3.5,1.7,-9.0%[15.4 µM],-10.5
O=c1oc([C@@H](O)c2ccccc2)cc2ccccc12,5.3,5.4%,-2.1,2.5,.,-1.8
COc1cccc(CC(=O)Nc2ccccc2C(=O)N2CCOCC2)c1,1.0,1.4%,-0.1,-1.3,-17.5%,-5.9
Cc1ccc(C(=O)OC(C)C(=O)N(C)C2CCCCC2)cc1S(=O)(=O)N1CCCCC1 (stereo not drawn),-5.1,-6.7%,4.0,.,13.0%,8.9
O=C(Nc1ccc(Cl)c(S(=O)(=O)N2CCOCC2)c1)c1ccncc1,-4.4,0.2%,2.8,-20.2,0.2%,-2.2
CC(=O)Nc1ccc(C=NNc2nnc(NN=Cc3ccc(NC(C)=O)cc3)c3ccccc23)cc1,-17.2,-6.2%,0.4,-15.7,-3.8%,-1.6
CN(C)C(=O)c1cccn(Cc2ccc(C(F)(F)F)cc2)c1=O,2.8,-15.1%,1.8,0.0,-11.5%[15.4 µM],-6.0
CCC(=O)N1CCN(c2ccccc2NC(=O)COc2cccc(C)c2C)CC1,-2.6,-32.2%,-3.5,1.6,?,-1.9
COc1cc(C=C2CCCC(=Cc3ccc(OCC4CO4)c(OC)c3)C2=O)ccc1OCC1CO1 (stereo not drawn),-10.3,.,-2.0,-22.7,-3.9%,10.5
Cc1ccc(OC(C)C(=O)Nc2ccncc2)cc1C (stereo not drawn),2.6,0.5%,-4.8,-14.3,-7.6%,-3.4
Cc1cc(C)nc(/N=C(\N)Nc2ccc(S(=O)(=O)O)cc2)n1,-10.2,14.0%,2.2,5.3,?,6.3
CCOC(=O)Cc1csc(NC(=O)CC(C)(C)CC(=O)O)n1,5.8,6.8%,-5.4,4.3,-12.7%[15.4 µM],-6.9
COc1ccc(CC(=O)Nc2ccncc2Cl)cc1,3.3,1.4%,4.9,7.0,-14.7%,3.3
CCOC(=O)C1=CC[C@@H](c2ccccc2)N(S(=O)(=O)c2ccc(C)cc2)[C@H]1c1ccc(C#N)cc1,-0.8,.,-3.8,-0.8,.,-2.2
COc1cccc(NC(=O)c2cccs2)c1,4.0,1.7%,-3.1,6.3,7.1%,-4.0
CCc1ncc(CN2CCC(C(=O)Nc3cccc(-c4cscn4)c3)CC2)cn1,-3.7,-0.8%,-0.1,-12.3,-36.7%[inhibitor],-26.4
Cc1cc(C)n2nc(C(=O)OCC(=O)Nc3cc(S(=O)(=O)N4CCOCC4)ccc3Cl)nc2n1,10.6,5.9%,-0.6,4.1,5.4%,19.8
CC(=O)Nc1ccc(CN(C)c2c(C)nc3ccc(C(=O)N(C)Cc4ccco4)cn23)cc1,-9.2,.,-7.3,-4.6,.,-1.8
O=C(O)CSC(NC(=O)c1cccnc1)(C(F)(F)F)C(F)(F)F,3.0,2.8%,-0.8,-0.6,2.2%,-3.7
Cc1ccccc1CC(=O)Nc1ccc2c(C)cc(=O)oc2c1,0.1,12.4%,-4.7,5.9,0.3%[15.4 µM],4.7
COc1ccc(Cl)cc1NS(=O)(=O)c1ccc(S(=O)(=O)N2CCCC2)cc1,-2.4,-26.1%,-0.8,0.0,-26.4%,-9.0
FC(F)(F)c1ccc(-c2cccc3c2C2CC3CCN2)cc1 (stereo not drawn),-15.3,11.0%,-0.7,-19.4,.,1.0
Nc1ccc2c(c1)COc1ccccc1O2,2.2,6.5%,-0.1,38.9,6.4%,-1.1
COC(=O)N/N=C/c1cc(C)n(-c2ccc(F)cc2)c1C,9.0,25.9%,-3.3,-2.4,0.1%,-7.5
C/C(=N\NC(=O)CSCc1ccccc1Br)c1cccc([N+](=O)[O-])c1,0.6,-25.3%,0.9,-2.7,-9.1%,7.2
CCOC(=O)c1c(-c2ccc(C)s2)csc1N,-5.6,10.6%,1.9,-19.8,?,-3.7
CNC(=S)N1CCN(c2nc3ccccc3s2)CC1,-2.4,-3.9%,-1.7,-6.9,3.1%[15.4 µM],-2.6

# Complete entries, quoted from the list. Screens in order: Six1-Eya2 blk | gsp antag | D2 agonist | CtBP-E1A inh | gsp agonist | D2 potentiator
# `Cc1ccc(OC(C)C(=O)Nc2ccncc2)cc1C` (stereo not drawn) is listed as 2.6 | 0.5% | -4.8 | -14.3 | -7.6% | -3.4
# `O=C(Nc1ccc(Cl)c(S(=O)(=O)N2CCOCC2)c1)c1ccncc1` is listed as -4.4 | 0.2% | 2.8 | -20.2 | 0.2% | -2.2
# `COc1ccccc1C(=O)NCCC(=O)Nc1ncccc1O` is listed as -11.2 | -5.2% | -4.5 | 13.4 | 17.6% | -3.8
# `COc1ccccc1-c1nnc(SC(C)C(=O)NCC2CCCO2)n1C` (stereo not drawn) is listed as 9.5 | 2.9% | -4.7 | 0.8 | -3.2%[15.4 µM] | -3.7

# (list continues)
SMILES,Six1-Eya2 blk,gsp antag,D2 agonist,CtBP-E1A inh,gsp agonist,D2 potentiator
Cc1ccc(NC(=O)NC(=O)c2cnccc2C(F)(F)F)c(C)c1,2.5,7.2%,-3.3,5.3,8.1%[15.4 µM],-4.1
COc1cccc(CN(C)CC(=O)NC(=O)NCc2ccco2)c1,-3.5,4.2%,-3.1,1.4,-40.8%[inhibitor],-8.1
CC1(C(=O)NS(=O)(=O)c2ccc(F)cc2F)CCN1C(=O)C1CCCCC1 (stereo not drawn),13.3,.,-4.3,-15.9,.,-6.2
O=C(c1nc(-c2ccccc2)n(-c2ccccc2)n1)N1CCCCCC1,-1.2,-4.0%,-5.1,0.8,-8.5%,-16.5
COc1ccccc1-c1nnc2sc(COc3ccc(Cl)cc3)nn12,-11.2,-6.2%,-1.6,-14.9,1.3%[15.4 µM],-10.5
O=C(Cc1ccc(Cl)c(Cl)c1)Nc1ccc(S(=O)(=O)Nc2ncccn2)cc1,?,6.6%,-0.5,-17.3,-5.5%[15.4 µM],15.6
CCCOc1ccc(C2C(=O)N(C3CCCCC3)CC(=O)N2CCCOCC)cc1OC (stereo not drawn),-0.4,3.6%,-1.4,-1.1,-18.9%,-15.4
O=C(NC1CCCC1)C1CCC(=O)N1CCc1ccccc1 (stereo not drawn),1.0,3.2%,-2.1,0.2,-14.2%,-11.4
O=C(CSCC(=O)Nc1nccs1)Nc1ccccc1,-2.5,-8.1%,-2.5,0.7,6.8%,-2.4
O=C(CN1C(=O)/C(=C/c2ccccc2F)SC1=S)NC1C=CS(=O)(=O)C1 (stereo not drawn),-4.9,-5.8%,0.9,-1.1,-13.9%,-5.6
NS(=O)(=O)c1cccc(NC(=O)CSc2nc3ccccc3c(=O)n2CC2CCCO2)c1 (stereo not drawn),-3.7,-9.4%,-1.4,5.7,27.7%[15.4 µM],-15.1
CCC[C@H](CN[C@@H](CNC)[C@H](C)CC)NCCc1cc(C(F)(F)F)cc(C(F)(F)F)c1,-1.0,17.2%,-1.7,-4.4,13.7%,-17.9
O=S(=O)(O)c1cc2oc(-c3ccccc3)nc2c2ccccc12,-10.5,-2.1%,-8.6,-1.3,3.6%,-9.9
COc1ccc(-n2nnnc2SCC(=O)N2CCOCC2)cc1,0.4,8.4%,-1.5,-4.0,?,-5.0
O=C1CCN(Cc2ccccc2)C=C1c1ccc(Cl)cc1,0.1,-1.4%,-5.4,-8.6,-4.5%,-5.0
Cc1ccc(OCC(=O)NC(=S)Nc2cccc(NC(=O)c3ccc(Cl)cc3Cl)c2)cc1,8.3,6.2%,-4.8,-2.8,-1.5%,9.7
COc1ccc(CCNC(=O)C2CC=CCC2C(=O)O)cc1 (stereo not drawn),1.2,15.6%,-3.2,2.7,-17.5%,-26.6
CC1(C)Cc2c(sc(NC(=O)Cc3ccccc3)c2C#N)C(C)(C)N1,-3.3,.,0.1,2.3,5.8%,-12.9
CCCn1ncc(CN2CCC(Cc3cccc(F)c3)(C(=O)OCC)CC2)c1C,-13.2,7.6%,1.3,.,20.3%[15.4 µM],-17.3
CN(C)C(=O)CN1C(=O)c2cccc3cccc1c23,-3.2,-2.4%,-5.4,.,6.7%,-18.3

# Bioassay records (PubChem)

# Compounds were not picked by outcome; about 1.4% have a hit in one of these screens.
